Rce1 inh – yeast Rce1p protease inhibitors, primary screen, biochemical, fluorescence, cell-free homogeneous | calls only | hit rate 0.27% among 290,000 | yeast membranes, quenched prenylated peptide cleavage fluorescence;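 active means fall in fluorescence gain of 50% or more versus controls, with final raw signal at or below 3038400; inconclusive means same 50% fall but final raw signal above 3038400; inactive means fall in fluorescence gain under 50%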;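 further: plate controls were neutral control wells for no effect and wells lacking membranes for full effect; tested at 10 µM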
Target sequence (Q03530 whole entry, looked up): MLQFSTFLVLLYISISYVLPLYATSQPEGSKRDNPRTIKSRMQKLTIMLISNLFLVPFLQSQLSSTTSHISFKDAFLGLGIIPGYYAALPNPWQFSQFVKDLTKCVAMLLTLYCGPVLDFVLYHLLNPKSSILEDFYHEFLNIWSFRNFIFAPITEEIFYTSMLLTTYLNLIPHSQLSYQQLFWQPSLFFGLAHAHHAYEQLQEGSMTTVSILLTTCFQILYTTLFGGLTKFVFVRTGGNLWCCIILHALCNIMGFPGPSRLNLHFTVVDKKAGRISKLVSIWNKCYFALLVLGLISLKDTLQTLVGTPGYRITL
Env fusion inh – inhibitors of HIV-1 Env-driven cell-cell fusion, primary screen, HeLa-JRFL effector, CEM21 target cells, luciferase. hit rate 1.1% among 360,000. inhibition, % at 12.3 µM;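 active means mean replicate inhibition score of at least 50 and every replicate individually at or above 50; inconclusive means only one of the two criteria met; inactive means mean below 50 and not all replicates reaching 50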;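 further: 0% = plate neutral controls and 100% = maraviroc near 300 nM; one replicate is shown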
CSC inhib – cancer stem cell viability inhibitors, primary screen, luminescence. AID 2717, 2010. inhibition, % at 7.5 µM. hit rate 1.1% among 300,000. cancer stem cell-like cells viability;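 active means mean at 75% or more and at least half the replicates too; inconclusive means mean and replicates disagree; tested in HMLE shEcad cells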;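 further: 0% = median of negative and 100% = median of positive control wells; the first replicate is given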
Yeast UUG start – modulators of yeast start codon fidelity, primary screen, whole organism, S. cerevisiae, single point, plate reader; S. cerevisiae UUG-firefly luciferase reporter, luminescence/redox ratio; activity score, % at 18.7 µM; hit rate 0.13% among 350,000;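 active means replicate mean at a twofold rise or more, about +100% in these data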;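 further: firefly luciferase made from a UUG start codon reports start codon fidelity; reporter light over untreated wells divided by growth signal over untreated wells; some hits fall short of that in this replicate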
PABP FP inh – PABP poly(A) RNA binding inhibitors, primary screen, biochemical, fluorescence polarization, uHTS; Polyadenylate-binding protein 1 (Homo sapiens), P11940; inhibition, % at 35 µM; hit rate 1% among 290,000; AID 2014, 2009;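 active means 50% or more with normal probe brightness, or confirmed in later tests; inconclusive means above 50% with abnormal brightness, or retests that disagree; inactive means below 50% or failed in later tests; about a fifth of its hits are not listed in these tables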;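 further: calls also rest on retests at 20 µM and on dose response follow-up; controls were probe without protein and protein plus probe with vehicle; some compounds called inactive have numbers as strong as hits; many hits fall short of the cut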
Target sequence (P11940 whole entry, looked up): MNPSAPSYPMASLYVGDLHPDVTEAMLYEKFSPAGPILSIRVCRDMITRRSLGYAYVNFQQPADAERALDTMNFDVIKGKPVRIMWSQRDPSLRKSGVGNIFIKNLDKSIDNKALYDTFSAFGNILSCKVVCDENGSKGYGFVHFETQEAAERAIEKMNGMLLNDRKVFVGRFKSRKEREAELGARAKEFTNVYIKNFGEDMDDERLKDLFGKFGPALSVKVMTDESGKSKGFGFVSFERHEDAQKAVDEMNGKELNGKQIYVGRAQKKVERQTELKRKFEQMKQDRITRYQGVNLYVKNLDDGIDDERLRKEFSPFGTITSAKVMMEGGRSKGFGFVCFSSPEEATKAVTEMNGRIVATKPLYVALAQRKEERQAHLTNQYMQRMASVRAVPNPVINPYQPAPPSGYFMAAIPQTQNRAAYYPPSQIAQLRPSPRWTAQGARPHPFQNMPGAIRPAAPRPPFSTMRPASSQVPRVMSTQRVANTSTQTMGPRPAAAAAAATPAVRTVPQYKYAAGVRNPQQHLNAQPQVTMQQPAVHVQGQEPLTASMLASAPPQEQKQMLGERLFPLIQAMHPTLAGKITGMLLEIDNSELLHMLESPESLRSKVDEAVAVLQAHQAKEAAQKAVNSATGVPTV
MT1-MMP act inh – blockers of MT1-MMP proenzyme processing, primary screen, HT1080 RFP-PRO-GFP cells, GFP/RFP fluorescence. GFP/RFP ratio change, % at 20 µM. Matrix metalloproteinase-14 (Homo sapiens), P50281. AID 651647, 2012. hit rate 0.061% among 360,000. GFP/RFP ratio fluorescence, overnight; percent of plate control window, DMSO zero;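 active means GFP/RFP ratio change of at least 30% with cell ATP level not reduced by more than half and red fluorescence within 50% of control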; further: strong numbers were not always called active
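Compound: 20 µM single dose, 1% DMSO / System: HT1080 RFP-PRO-GFP cells / Controls: DMSO and RFP-L50D-GFP cell wells / Read-out basis: GFP/RFP fluorescence ratio / Schedule: overnight compound exposure at 37 °C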
eIF4H inh – human eIF4H binding inhibitors, primary screen, translation initiation inhibitor project, biochemical, uHTS, fluorescence polarization | Eukaryotic translation initiation factor 4H (Homo sapiens), Q15056 | eIF4H fluorescence polarization binding assay | inhibition, % at 35 µM | hit rate 0.94% among 290,000;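 active means 50% or more with normal probe brightness, or confirmed in later tests; inconclusive means above 50% with abnormal brightness, or retests that disagree; inactive means below 50% or failed in later tests; about a fifth of its hits are not listed in these tables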;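 further: calls also rest on retests at 20 µM and on dose response follow-up; 0% = protein and probe with vehicle and 100% = probe without protein; strong numbers were not always called active; many hits fall short of the cut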
eIF4H inh retest – recorded beside eIF4H inh, whose call it bears; inhibition, %; compound at 20 µM; confirmation average;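 mean of two retest wells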
PABP FP inh retest – also measured in PABP FP inh; calls as there; inhibition, %; compound at 20 µM; confirmation repeats;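 mean of two retest wells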
MT1-MMP act inh RFP – recorded beside MT1-MMP act inh, whose call it bears; RFP signal change, %; measured here: RFP expression control read;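 0 = vehicle wells; hits needed this value within 50% of zero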
Starred values were filed as active, the others as inactive; i = inactive; ? = inconclusive; . = not tested or not shown. This is a subset; rates above refer to the full screens.

Sample of the layout:
SMILES	Rce1 inh	Env fusion inh	CSC inhib	Yeast UUG start	PABP FP inh	MT1-MMP act inh	MT1-MMP act inh RFP	eIF4H inh	others
Cc1ccc(S(=O)(=O)N(C)CC(=O)N2CCN(Cc3ccccc3)CC2)cc1	i	-9	9	-3	-1	0	-2	9
CC(=O)Nc1cccc(NC(=O)c2cccc(Cl)c2)c1	.	13	.	-15	.	3	5	.
O=C(Nc1ccccc1Cl)N1CCN(C/C=C/c2ccccc2)CC1	i	12	6	.	-2	1	10	-8
Cc1ccc2c(c1)C1(OCCCO1)C(=O)N2CC(=O)NN	i	-4	0	-3	.	-2	0	.
COc1ccc(CNC(=O)c2c(C)nc3ccccn23)cc1	i	?	.	-16	-2	4	0	-8
Cc1ccc(C=Nc2ccccc2C(N)=O)o1	i	5	-6	.	10	-5	-3	3
CC(C)(Oc1ccc(Cl)cc1)C(=O)O/N=C(\N)c1ccncc1	i	5	5	.	-5	2	-7	-3
CN1CCC(=O)N([C@H](CO)Cc2ccccc2)CC1	i	11	-10	-4	0	-1	2	8
O=C(Nc1ccc(F)c(Cl)c1)C1Cc2c(-c3ccc(Cl)cc3)ccnc2O1 (stereo not given)	.	13	.	-6	.	-6	-14	.
Cc1nc2cc(-c3ccccc3)nn2c(C)c1CCC(=O)NCc1ccco1	i	25	1	-36	5	1	2	-3
COc1ccc(C)cc1S(=O)(=O)N1CCN(S(=O)(=O)c2cc(C(=O)O)ccc2C)CC1	i	6	-3	-1	4	-2	-3	-8
Cc1cc(C(C)(C)C)n2nc(C)c(-c3ccccc3)c2n1	i	6	.	16	-5	13	-1	-2
C/C=C\C=C/C(=O)Nc1cccc(C2=NOC3(C2)C[C@@H](C(N)=O)N(C(=O)/C=C/C=C\C)C3)c1 (stereo not given in full)	i	.	-8	0	8	1	4	17
COC(=O)c1ccccc1NC(=O)C1CCN(C(=O)c2ccc(OC)cc2)CC1	i	.	-7	10	-1	2	1	3

Results, previewed entries included:
SMILES	Rce1 inh	Env fusion inh	CSC inhib	Yeast UUG start	PABP FP inh	MT1-MMP act inh	MT1-MMP act inh RFP	eIF4H inh	others
Cc1ccc(S(=O)(=O)N(C)CC(=O)N2CCN(Cc3ccccc3)CC2)cc1	i	-9	9	-3	-1	0	-2	9
CC(=O)Nc1cccc(NC(=O)c2cccc(Cl)c2)c1	.	13	.	-15	.	3	5	.
O=C(Nc1ccccc1Cl)N1CCN(C/C=C/c2ccccc2)CC1	i	12	6	.	-2	1	10	-8
Cc1ccc2c(c1)C1(OCCCO1)C(=O)N2CC(=O)NN	i	-4	0	-3	.	-2	0	.
COc1ccc(CNC(=O)c2c(C)nc3ccccn23)cc1	i	?	.	-16	-2	4	0	-8
Cc1ccc(C=Nc2ccccc2C(N)=O)o1	i	5	-6	.	10	-5	-3	3
CC(C)(Oc1ccc(Cl)cc1)C(=O)O/N=C(\N)c1ccncc1	i	5	5	.	-5	2	-7	-3
CN1CCC(=O)N([C@H](CO)Cc2ccccc2)CC1	i	11	-10	-4	0	-1	2	8
O=C(Nc1ccc(F)c(Cl)c1)C1Cc2c(-c3ccc(Cl)cc3)ccnc2O1 (stereo not given)	.	13	.	-6	.	-6	-14	.
Cc1nc2cc(-c3ccccc3)nn2c(C)c1CCC(=O)NCc1ccco1	i	25	1	-36	5	1	2	-3
COc1ccc(C)cc1S(=O)(=O)N1CCN(S(=O)(=O)c2cc(C(=O)O)ccc2C)CC1	i	6	-3	-1	4	-2	-3	-8
Cc1cc(C(C)(C)C)n2nc(C)c(-c3ccccc3)c2n1	i	6	.	16	-5	13	-1	-2
C/C=C\C=C/C(=O)Nc1cccc(C2=NOC3(C2)C[C@@H](C(N)=O)N(C(=O)/C=C/C=C\C)C3)c1 (stereo not given in full)	i	.	-8	0	8	1	4	17
COC(=O)c1ccccc1NC(=O)C1CCN(C(=O)c2ccc(OC)cc2)CC1	i	.	-7	10	-1	2	1	3
O=S(=O)(c1ccccc1)N1CCN(c2ncnc3sc(-c4ccccc4)cc23)CC1	i	36	.	-3	-10	-1	-12	5
CC(=O)c1ccc(NC(=O)CN2CCOCC2)cc1	i	3	-12	-7	1	-2	2	-5
C[C@@H]1C(c2ccccc2)=NN(c2ccccc2)[C@H]1C(=O)N1CCOC1=O	.	-136	.	-7	.	2	5	.
Cc1ccc(S(=O)(=O)N2CCN(Cc3cc(=O)n4ccccc4n3)CC2)cc1C	.	.	3	-4	.	-5	1	.
COc1ccc(COc2ccc3c(C)cc(=O)oc3c2)cc1	i	-20	10	4	6	1	-1	-13
Cc1ccc2nc(CNC(=O)C3CCC(=O)N(Cc4ccccc4F)C3)cn2c1 (stereo not given)	i	-27	5	-2	5	-4	-3	-11

Compounds shown so far containing a furan ring, fused or not (2):
SMILES	Rce1 inh	Env fusion inh	CSC inhib	Yeast UUG start	PABP FP inh	MT1-MMP act inh	MT1-MMP act inh RFP	eIF4H inh	others
Cc1ccc(C=Nc2ccccc2C(N)=O)o1	i	5	-6	.	10	-5	-3	3
Cc1nc2cc(-c3ccccc3)nn2c(C)c1CCC(=O)NCc1ccco1	i	25	1	-36	5	1	2	-3

(more compounds)
SMILES	Rce1 inh	Env fusion inh	CSC inhib	Yeast UUG start	PABP FP inh	MT1-MMP act inh	MT1-MMP act inh RFP	eIF4H inh	others
O=c1c(C(c2ccc(F)cc2)c2c(O)nc3n(c2=O)CCS3)c(O)nc2n1CCS2	i	2	2	.	35	1	4	5
N#Cc1cccc(NC(=O)C2CCCN(C(=O)c3ccc(Cl)cc3)C2)c1 (stereo not given)	.	1	-19	-4	.	-1	-10	.
O=C(NCc1cccs1)C1CCN(S(=O)(=O)c2ccc(Br)s2)CC1	i	.	-6	-8	-5	-2	-6	-4
CCOc1ccccc1N(C)C(=O)Cn1ncc2c([nH]c3ccc(C)cc32)c1=O	i	8	37	-4	8	0	-9	3
COc1ccc(C(=O)CSc2nnc(-c3ccco3)c(-c3ccco3)n2)cc1	i	7	.	.	75*	3	4	85	eIF4H inh retest=31;PABP FP inh retest=60*
CCC(=O)Nc1ccc(F)c(Cl)c1	i	.	-4	-10	-8	3	4	8
Cc1nc2c([nH]1)C1(CCN(Cc3ccccc3)CC1)C(C#N)=C(N)O2	.	.	-13	-23	66*	-12	1	45*	eIF4H inh retest=102*;PABP FP inh retest=61*
CCOc1ccc(NC(=O)CSc2nc3nc(C)cc(C)n3n2)cc1	i	.	4	-3	-4	7	-8	3
O=C(NCc1ccco1)c1n[nH]c(=O)c2ccccc12	i	-6	-5	-9	4	-1	0	4
O=C1CC[C@@H]2CC3(C[C@@H]4CCN1[C@H]24)Nc1cc([N+](=O)[O-])ccc1NC3=NC1CCCCC1 (stereo not given in full)	.	-27	.	9	.	-21	1	.
O=C(NCCc1ccccc1)c1nc2c(nnn2Cc2ccccc2Cl)c(=O)[nH]1	i	23	.	-13	3	13	1	8
Cc1cc(NC(=O)CN2CCN(C)CC2)no1	i	6	-5	.	44	-3	2	-4
O=C(COC(=O)CCC(=O)c1cccs1)NCc1ccco1	.	.	.	0	36	-8	-2	87*	eIF4H inh retest=63*;PABP FP inh retest=33
COc1ccc(CCCc2nnc(SCC(=O)Nc3nccs3)n2C)cc1C	i	-5	-11	-13	-2	5	2	-4
COc1ccc(CCNC(=O)c2c(C)nn(CC(C)C)c2Cl)cc1OC	i	-35	4	10	2	-1	-1	3
Cc1cc(C(=O)CCC(=O)Nc2ncccc2O)c(C)s1	i	10	-1	-14	.	4	-1	.
O=C(CCc1ccccc1)NC(=S)NCc1ccco1	i	1	.	-20	-13	-3	-2	-6
O=c1[nH]c2ccc(NC(=S)Nc3ccccc3Cl)cc2[nH]1	i	.	1	-29	10	-2	4	-4
CCOC(=O)c1ccc(NC(=O)Cn2cnc3cc(C)c(C)cc32)cc1	i	-27	9	.	-12	4	-30	-1
CCN(CC)c1cc(Oc2ccccc2)ncn1	i	-106	-4	-17	-4	-5	-3	-4
CCc1ccccc1NC(=O)CN(C)C(=O)COC(=O)c1c(Cl)cccc1Cl	.	-1	.	-5	.	-3	-2	.
COc1ccc(C(=O)NCC2CCCCC2)cc1S(=O)(=O)N1CCOCC1	.	-5	-24	-8	.	9	-2	.
COc1ccc(NC(=O)CSc2nc(C(C)C)nc3c2c(=O)n(C)c(=O)n3C)c(OC)c1	i	8	4	-18	-13	-5	1	-6
O=C(N/C(=C\c1ccco1)C(=O)N1CCOCC1)c1ccccc1Cl	i	24	.	-7	-1	0	3	0
Clc1ccccc1CN(Cc1ccccc1)C(c1cccs1)c1nnnn1C1CCCC1 (stereo not given)	.	83*	24	3	-5	-29	-22	-8
Cc1ccc2c(=O)c(CN3CCCCCC3)c(C)[nH]c2c1C	i	12	-10	-4	9	-1	-1	-10
CC(=O)C1=C(O)C(=O)N(c2ccc(O)cc2)C1c1ccccc1Cl (stereo not given)	i	-4	-1	-13	1	-1	2	-4
CN(Cc1ccccc1)C(=O)COC(=O)c1ccc(Br)o1	.	1	7	-3	.	-2	4	.
C[C@H](NC(=O)C1CCN(C(=O)[C@H](Cc2ccccc2)NC(=O)OC(C)(C)C)CC1)C(=O)O	i	8	6	-19	11	-4	0	-7
Cc1cc(=O)oc2cc(OC(C)C(=O)NCCCn3ccnc3)ccc12 (stereo not given)	i	1	3	-18	-2	2	5	-6
CSc1ccccc1NC(=O)C1(C)CCN1C(=O)CCC1CCCC1 (stereo not given)	.	13	.	-5	.	0	0	.
Nc1ccc(Oc2ccccc2F)nc1	i	-4	2	-18	?	0	9	?
Cn1ncc([N+](=O)[O-])c1C(=O)Nc1ccccc1C(=O)O	i	8	-8	-14	-2	-3	0	8
CCOC(=O)N1CCC(N2Cc3cccc(C(=O)Nc4cc(F)ccc4F)c3C2=O)CC1	i	-21	.	-10	3	-24	-29	0
COc1ccc(CN(C)C(=O)c2cc(S(=O)(=O)N3CCOCC3)ccc2N2CCCC2)cc1	i	5	-4	-8	.	-5	-5	.
Cc1cc2cc(CNC(=S)Nc3ccc(OC(F)(F)F)cc3)ccc2[nH]1	i	5	30	-12	9	15	5	-11
C=CCc1cccc2cc(C(=O)NNC(=O)c3ccncc3)c(=O)oc12	.	9	-7	.	7	2	2	24
CCCN1C(=O)/C(=C/c2cc(C)n(C)c2C)SC1=Nc1ccc(OCC)cc1	i	.	14	-10	0	0	-4	3
CCCCCN(C(=O)CCC(=O)OCC(=O)N1CCCCC1)c1c(N)n(CCCC)c(=O)[nH]c1=O	i	3	-6	5	2	-3	-2	-9
COc1ccc(NC(=O)c2sc3ncn(CC(=O)N4CCN(c5ccccn5)CC4)c(=O)c3c2C)c(OC)c1	i	1	-8	-23	7	0	-2	-9
O=C(O)CCCC1(C(=O)O)CCCC1	.	9	.	7	.	0	-1	.
O=[N+]([O-])c1ccccc1S(=O)(=O)N1CCN(C2CCCC2)CC1	i	-9	-8	-26	3	1	4	7
Cc1c(C(N)=O)sc2ncn(CCOc3ccccc3)c(=O)c12	i	-5	1	-12	1	2	0	-1
